PMP22 txn prim – modulators of PMP22 gene transcription in S16 Schwann cells; S16 Pmp22-F2sN Schwann cells (luciferase reporters placed in the Pmp22 gene), FLuc/NLuc coincidence luminescence, 24 h; Potency, µM (doses to about 57.5 µM), without a hit: at the highest dose activity change, negative = inhibition, usual class: inhibitors; actives 2% (n = 43,000); active = clear falling dose curves in both reporters; inconclusive = both reporters move, but less clearly or upward; inactive = either reporter flat; the % is the NLuc reporter signal; further: on the % scale 0 is the no-effect control and ±100 the full control effect; some results filed as inactive show a strong effect at the top dose
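Reporter cells (S16 Pmp22-F2sN, 500–1,000 per well) exposed to compounds for 24 h, 37C, 5% CO2; lysis with FLuc read after 10 min, then Stop&Glo and NLuc read after 10 min.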
HTT prom inh – inhibitors of huntingtin promoter activity; Potency, µM (highest dose often 57.5 µM), without a hit: top-dose activity change, negative = inhibition, usual class: inhibitors; HEK293 HTT promoter firefly luciferase reporter (activity 0% = vehicle and -100% = no light), 24 h; actives 0.93% (n = 48,000); active means well fitted inhibition curve with a large enough effect; inconclusive means small, poorly fitted or top-dose-only effect; inactive means no such curve, though single readings can be large or run the other way; further: nearly all actives have a fitted effect of over 50% in size
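Firefly luciferase signal from promoter-reporter HEK293 cells was scaled between vehicle (0%) and zero RLU (-100%). Compounds were tested at final concentrations of up to 57.5 uM over 24 h at 37 degrees C. PTC124 at 50 uM final served as control inhibitor.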
* marks the source's active call; other numbers are inactive results; ? = inconclusive; . = no result given; [ ] = another dose, or the depositor's remark. Potency means the concentration at half of the fitted maximal effect.

Every second line gives: PMP22 txn prim, HTT prom inh
> COC(=O)c1ccccc1NC(=O)CSc1c2c(nc3ccc(Cl)cc13)CCCC2
→ 18µM*, -15%
> COc1cccc(N2CC(NC(=O)/C=C\c3ccc4c(c3)OCO4)CC2=O)c1 (centres undefined)
→ 16%, -25%
> COc1ccc(Nc2nc(N)c3cc(OC)c(OC)cc3n2)cc1
→ ?, 3%
> Cc1csc2nc(COC(=O)c3ccc(F)cc3)cc(=O)n12
→ ?, -24%
> CN(C)S(=O)(=O)c1ccc2c(c1)N(CC(=O)Nc1cccc(C(F)(F)F)c1)C(=O)CS2
→ -1%, -35%
> COc1cccc(C(=O)CC2(O)C(=O)Nc3ccc(Cl)cc32)c1 (centres undefined)
→ -29%, -19%
> Cc1nnc(SCc2cc(=O)c3cc(F)ccc3[nH]2)n1C
→ 5%, 19%
> Cc1ccc(NC(=O)C2(C)Cc3ccccc3C(=O)O2)c(C)c1 (centres undefined)
→ -2%, -7%
> Cc1cccc(OCCn2c(SCC(=O)O)nc3ccccc32)c1
→ 3%, -9%
> CC(=O)Nc1ccc(S(=O)(=O)NC2(C(F)(F)F)C(=O)Nc3c2c(=O)[nH]c(=O)n3-c2cccc(Cl)c2)cc1 (centres undefined)
→ 7%, -18%[11.5 µM]
> CCc1nnc(SCC(=O)Nc2cccc(C(F)(F)F)c2)c2cc3oc(C)cc3n12
→ ?, -28%
> N#Cc1nc(-c2ccc(COc3ccc(Cl)cc3)o2)oc1N1CCCCC1
→ -11%, -26%
> COC(=O)c1cc(S(=O)(=O)NCC2CCN(Cc3ccc(F)cc3)CC2)c[nH]1
→ 3%, -26%
> CCC(=O)N1c2ccccc2CC1C(=O)NCCc1cc(OC)c(OC)c(OC)c1 (centres undefined)
→ ?, 0%
> COc1cccc(CNC(=O)C2CCN(S(=O)(=O)c3c(C)noc3/C=C/c3cccs3)CC2)c1
→ -22%, -30%
> O=C(NCCc1ccccc1)c1sc2ncccc2c1-n1cccc1
→ ?, 11%
> CCN(CC)CCNC(=O)Cn1ncc2c3ccccc3n(Cc3ccc(Cl)cc3)c2c1=O
→ ?, -4%
> CCc1nn2c(=O)cc(COC(=O)CNC(=O)COc3ccc(C)cc3)nc2s1
→ 9%, -2%
> Cc1ccccc1Nc1c(-c2ccc(N3CCOCC3)cc2)nc2cccc(C)n12
→ -25%, 13%
> COc1cccc(NC(=O)Cn2c(=O)oc3cc(S(=O)(=O)N4CCCCC4)ccc32)c1
→ -37%, ?
> CCOc1ccc2nc(NC(=O)c3cc(=O)c4ccc(C)cc4o3)sc2c1
→ -9%, 5%
> O=C1c2ccccc2C(=O)c2c1ccc(O)c2O
→ ., 14%
> CCOc1ccc(-c2cn3c(n2)sc2cc(C(=O)NCCc4ccc(OC)cc4OC)ccc23)cc1
→ -32%, -16%
> Cc1cc2c(cc3c(SCc4ccc(Cl)cc4)nnc(C)n32)o1
→ ?, -9%
> COCCNC(=O)CSc1cn(CC(=O)N2CCCCCC2)c2ccccc12
→ -11%, -17%
> COc1ccc(C(=O)Nc2ccc3nc(SCC(=O)N4CCOCC4)sc3c2)cc1
→ 4%, -4%
> CCc1ccc(NC(=O)CC2C(=O)N(c3ccc(C)cc3)C(=O)N2CCc2ccncc2)cc1 (centres undefined)
→ -11%, -11%
> COc1ccc(-c2cn3nc(N4CCCC(C(=O)NCc5ccccc5Cl)C4)sc3n2)cc1 (centres undefined)
→ ?, -6%
> Cc1oc2c(c1C(=O)Nc1ccc(Cl)cc1F)C1=NCCN1C=N2
→ 12%, 4%
> Cc1cccc2nc(Cn3c(=O)n(-c4ccc(Cl)cc4)c(=O)c4c5c(sc43)CCC5)cc(=O)n12
→ -7%, -6%
> CCOC(=O)c1c(-c2ccccc2)oc2ccc(NS(=O)(=O)c3ccc(C)cc3)cc12
→ ?, ?
> Cn1c(=O)c2c(-c3ccc(Br)cc3)n(CCc3ccccc3)cc2n(C)c1=O
→ ?, -4%
> CC(=O)Nc1nonc1-c1nnc(SCc2ccc(F)cc2)n1C
→ 5%, -17%
> COc1ccc(N2CCN(C(CNC(=O)C(=O)NCCCN(C)C)c3cccnc3)CC2)cc1 (centres undefined)
→ -14%, -8%
> Cc1ccc(NC(=O)CCC(=O)N2Cc3ccccc3Oc3ncccc32)cc1Cl
→ -3%, -11%
> CN1C(=O)CC[C@H]1c1cccnc1
→ ., 6%
> O=C(NC1CC(=O)N(c2cccc(F)c2)C1)c1ccc(S(=O)(=O)N2CCCC2)cc1 (centres undefined)
→ -6%, -18%
> Cn1c(=O)cc(SCC(=O)NCc2ccc(F)cc2)c2ccc(Cl)cc21
→ 0%, -5%
> O=C1CCc2cc(S(=O)(=O)NC(C(=O)Nc3ccc(F)cc3)c3ccccc3)ccc2N1 (centres undefined)
→ -10%, -13%
> COc1ccc(NC(=O)c2ccco2)cc1NC(=O)c1cccc(C)c1OC
→ ?, -29%
> CCOC(=O)c1ccc(NC(=O)C(CC)Sc2nc3ccncc3[nH]2)cc1 (centres undefined)
→ 15%, -22%
> Cc1ncc(CO)c2c1Oc1nc(-c3ccc(F)cc3)nc(SCC(=O)N3CCCCC3)c1C2
→ ?, -19%
> COc1ccc2sc(N(Cc3cccnc3)C(=O)C3CCCCC3)nc2c1
→ -21%, ?
> CCCCOc1cc(C(=O)NCCN(CC)CC)c2ccccc2n1
→ ., -7%
> Cc1oc2ncn(CC(C)C)c(=O)c2c1C(=O)NCCc1ccc(Cl)cc1
→ ?, ?
> O=C1c2ccccc2C(=O)C1(c1ccccc1)N1CCN(c2cccc(Cl)c2)CC1
→ 30%, -20%
> CCn1c(=O)c2cc(C(=O)NCCCN3CCN(C)CC3)sc2c2ccccc21
→ 11µM*, 18%
> CCCOc1ccc(C(=O)Nc2cc3nn(-c4ccc(CC)cc4)nc3cc2C)cc1
→ -15%, -4%
> CCOc1ccc(C(=O)NCC(c2ccco2)S(=O)(=O)c2ccc(C)cc2)cc1 (centres undefined)
→ -6%, -13%
> O=C(COc1ccc(F)cc1)OCc1cc(=O)n2nc(-c3cccs3)sc2n1
→ 0%, -18%
> CCC(Sc1nc2cc(OC)c(OC)cc2c2nc(-c3ccccc3)nn12)C(=O)Nc1cccc(C)c1 (centres undefined)
→ -4%, -1%
> CCOCCCNC(=O)C(c1ccc(C)cc1)N(Cc1cccs1)C(=O)c1ccc(NC(C)=O)cc1 (centres undefined)
→ -30%, -13%
> COc1ccc(N(CC(=O)NCc2ccc(F)cc2)S(=O)(=O)c2c(C)n[nH]c2C)cc1
→ -7%, -5%
> COc1ccccc1N1CCN(C(=O)c2c(C)oc3ncn(CC(C)C)c(=O)c23)CC1
→ 6%, 11%
> CCOC(=O)N1CCc2c(sc3c2c(=O)n(-c2ccc(Cl)cc2)c(=O)n3Cc2cccc(OC)c2)C1
→ ?, ?
> COc1ccccc1CCNC(=O)Cc1c(C)c2cc3c(C)coc3cc2oc1=O
→ ?, 3%
> COc1ccccc1CNC(=O)Cc1csc2nc(-c3ccccc3)cn12
→ 8%, 8%
> O=C(NCc1cccc(Cl)c1)c1ccc(NC(=O)N2CC3CCCN3c3ccccc32)cc1 (centres undefined)
→ -1%, ?
> COc1cc(OC)cc(C(=O)Nc2ccc3oc(-c4ccccc4C)nc3c2)c1
→ -52%, 5%
> C[N+](C)(CCOc1ccccc1)Cc1cccs1
→ ., 5%

Further entries:
SMILES | PMP22 txn prim | HTT prom inh
Cc1ccc(CNC(=O)C2CCN(c3nc4ccc(C)cc4[nH]3)CC2)cc1 | -4% | 1%
Cc1ccc2c(c1)C(c1ccc(F)cc1)N(C(=O)C(C)C)CC(=O)N2 (centres undefined) | ? | -1%
CCOc1cc(C2NC(=O)c3c(sc4c3CCN(C)C4)N2)ccc1OC(=O)c1ccccc1Cl (centres undefined) | -7% | -31%
COc1cccc(OCc2nc3ccccc3n2Cc2ccccc2C)c1 | ? | ?
Cc1cccc(N2CCN(C(=O)c3ccc4c(c3)N(Cc3cccc(Cl)c3)C(=O)c3ccccc3S4(=O)=O)CC2)c1C | 1% | -12%
COc1ccccc1-n1cc(-c2ccc(C)cc2)nc1S(=O)(=O)CC(=O)Nc1ccccc1C(F)(F)F | -30% | -8%
COc1ccc(N2CC(NC(=O)c3ccc(Br)o3)CC2=O)cc1 (centres undefined) | 11% | 4%
COc1cc(Cl)c(C)cc1NC(=O)CSc1ncc(S(=O)(=O)c2ccc(C(C)(C)C)cc2)c(=O)[nH]1 | -10% | -4%
COc1ccc(-c2nc3n(n2)C(c2ccc(OC)cc2)C(C(=O)Nc2cccnc2)=C(C)N3)cc1 (centres undefined) | ? | -22%
Cc1cc2nc3c(=O)[nH]c(=O)nc-3n(CC(O)C(O)C(O)CO)c2cc1C (centres undefined) | . | 1%
Cc1ccc(NS(=O)(=O)c2ccc3[nH]c(=O)ccc3c2)cc1N(C)C | ? | -22%
COCCN1C(=O)N(c2cccc(OC)c2)C(=O)C1CC(=O)Nc1ccccc1 (centres undefined) | 24% | -8%
Cn1cc(CN(C(=O)Nc2ccccc2)C2CCCCC2)c2ccccc21 | 9.5µM* | -25%
CCC(=O)N1CCc2cc(S(=O)(=O)CCC(=O)N3CCN(c4ccccc4Cl)CC3)ccc21 | ? | 0%
CCc1ccc(-n2nc(C)c3c(C(=O)Nc4cc(C)c(Cl)cc4OC)cc(C)nc32)cc1 | -25% | -3%
Cn1nc(C(=O)N2CCN(c3ccc(F)cc3)CC2)c2c1-c1ccccc1SC2 | -4% | -3%
CCOC(=O)c1c(C)oc2nc(C)nc(NCC3CCN(Cc4ccc(C)cc4)CC3)c12 | -12% | 0%
CCCS(=O)(=O)N1CC(=O)N(c2ccccc2F)C(C)(C(=O)NC2CCCCCC2)C1 (centres undefined) | -14% | 0%
Cc1c(Cl)cccc1NC(=O)CN1C(=O)COc2ccc(S(=O)(=O)Nc3ccccc3)cc21 | -28% | ?
CCOc1ccc(S(=O)(=O)Nc2ccc3c(c2)N(C(C)=O)CCC3)cc1 | ? | -24%
Cc1oc(-c2ccc(C(=O)NCc3ccccc3F)cc2)nc1COc1ccccc1 | 3% | ?
CC(C)Oc1cccc(C(=O)Nc2ccc3oc(-c4cccc(Cl)c4)nc3c2)c1 | 11% | 9%
Cn1ncc2nc(SCC(=O)Nc3ccc(Br)cc3F)n(Cc3ccccc3)c(=O)c21 | ? | -21%
COc1cc(C(=O)Nc2ccc(NC(=O)c3ccc(Br)cc3)cc2)cc(OC)c1OC | -1% | -15%[11.5 µM]
Cc1ccc(CCNC(=O)CCN2N=C(c3ccc(C)cc3)CCC2=O)cc1 | -3% | -21%
COCC(C)Nc1ncnc2c1cnn2-c1cccc(Cl)c1 (centres undefined) | ? | 18%
COc1ccc(CNC(=O)c2ccc(-c3nc(CS(=O)c4ccc(C)cc4)c(C)o3)cc2)cc1 (centres undefined) | ? | ?
CCN(CC)c1nn2c(=O)c(C(=O)NCc3ccccc3Br)cnc2s1 | ? | 5%
CC(=O)Nc1ccc(NC(=O)c2cc(-c3cccs3)on2)cc1 | -10% | 10%
CCOc1ccc(Nc2nc(C)c(NC(=O)c3ccc(C)cc3)c(Nc3ccc(OCC)cc3)n2)cc1 | ? | ?
Cc1ccc(CNC(=O)Cc2csc3ccccc23)cc1 | ? | 76%[activator]
Cc1cccc(OCC(=O)NCC2(N3CCN(C)CC3)CCCCC2)c1C | ? | -10%
CCN(CC)CCSc1nnc2c3cc(F)ccc3n(CC)c2n1 | -25% | -11%
Cn1cnc2c1c(=O)[nH]c(=O)n2C | . | ?
COc1ccc(CNC(=O)Cn2c(SCC(=O)Nc3ccc(C)c(C)c3)nc3ccccc32)cc1 | ? | ?
O=C(NCc1ccc(F)cc1)c1cc2c(s1)-c1ccccc1SC2 | -16% | 1%
CCOc1ccc(Nc2cc(C)nc3nncn23)cc1 | 1% | -3%
CCOC(=O)c1c(C)oc2nc(C)nc(NCc3cccc(OC)c3)c12 | ? | -12%
CC(=O)Nc1cccc(NC(=O)Cn2cnc3c(oc4ccccc43)c2=O)c1 | -13% | 2%

In the list so far, these contain a thiophene ring, fused or not.
SMILES | PMP22 txn prim | HTT prom inh
COc1cccc(CNC(=O)C2CCN(S(=O)(=O)c3c(C)noc3/C=C/c3cccs3)CC2)c1 | -22% | -30%
O=C(NCCc1ccccc1)c1sc2ncccc2c1-n1cccc1 | ? | 11%
Cc1cccc2nc(Cn3c(=O)n(-c4ccc(Cl)cc4)c(=O)c4c5c(sc43)CCC5)cc(=O)n12 | -7% | -6%
CCn1c(=O)c2cc(C(=O)NCCCN3CCN(C)CC3)sc2c2ccccc21 | 11µM* | 18%
O=C(COc1ccc(F)cc1)OCc1cc(=O)n2nc(-c3cccs3)sc2n1 | 0% | -18%
CCOCCCNC(=O)C(c1ccc(C)cc1)N(Cc1cccs1)C(=O)c1ccc(NC(C)=O)cc1 (centres undefined) | -30% | -13%
CCOC(=O)N1CCc2c(sc3c2c(=O)n(-c2ccc(Cl)cc2)c(=O)n3Cc2cccc(OC)c2)C1 | ? | ?
C[N+](C)(CCOc1ccccc1)Cc1cccs1 | . | 5%
CCOc1cc(C2NC(=O)c3c(sc4c3CCN(C)C4)N2)ccc1OC(=O)c1ccccc1Cl (centres undefined) | -7% | -31%
CC(=O)Nc1ccc(NC(=O)c2cc(-c3cccs3)on2)cc1 | -10% | 10%
Cc1ccc(CNC(=O)Cc2csc3ccccc23)cc1 | ? | 76%[activator]
O=C(NCc1ccc(F)cc1)c1cc2c(s1)-c1ccccc1SC2 | -16% | 1%

Compound activity: PubChem BioAssay, National Center for Advancing Translational Sciences (NCATS)
